FGF22 binding – FGF22 (human) thermal shift binding. hit rate 1.5% among 340,000. AID 651658. calls only at 9.99 µM. recombinant FGF22 thermal shift, SYPRO orange fluorescence; percent of sucrose octasulfate shift, DMSO zero;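 active = melting point raised past a set limit in the mean and every replicate; three in four hits are not shown here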
Target sequence (Q9HCT0 whole entry, looked up): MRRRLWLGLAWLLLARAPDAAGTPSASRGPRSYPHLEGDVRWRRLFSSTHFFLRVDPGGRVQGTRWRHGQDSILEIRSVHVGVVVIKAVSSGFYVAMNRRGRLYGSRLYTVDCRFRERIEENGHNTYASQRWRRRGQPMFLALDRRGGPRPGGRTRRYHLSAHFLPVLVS
Ecoli rRNA inh – inhibits bacterial ribosomal RNA function over humanized ribosomes; hit rate 1.6% among 350,000; GFP signal change (wild-type ribosome), % (test concentration not listed); AID 720706; E. coli WT GFP vs humanized-ribosome RFP mutants, fluorescence, 24 h; active compounds read low; DMSO median 0, no signal -100;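 active = significant combined selectivity score with lowered wild-type GFP, culture density cut under 30%, mutant RFP and density less affected; inactive = any of these conditions unmet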; also: one replicate is shown; some compounds called inactive have numbers as strong as hits
AF4-AF9 inh – blocks AF4 peptide binding to human AF9; P42568; AlphaScreen, biotin-AF4 peptide binding to FLAG-AF9; inhibition, % at 10 µM; hit rate 0.47% among 350,000; AID 651704;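 active = every replicate reaching a set inhibition limit, whatever the replicate mean, cut at about 25% in these data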;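 also: 0% = plate neutral control median and 100% = total signal loss; the record names both 10 and 1 µM as test concentration; the first replicate is given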
Target sequence (P42568 whole entry, looked up): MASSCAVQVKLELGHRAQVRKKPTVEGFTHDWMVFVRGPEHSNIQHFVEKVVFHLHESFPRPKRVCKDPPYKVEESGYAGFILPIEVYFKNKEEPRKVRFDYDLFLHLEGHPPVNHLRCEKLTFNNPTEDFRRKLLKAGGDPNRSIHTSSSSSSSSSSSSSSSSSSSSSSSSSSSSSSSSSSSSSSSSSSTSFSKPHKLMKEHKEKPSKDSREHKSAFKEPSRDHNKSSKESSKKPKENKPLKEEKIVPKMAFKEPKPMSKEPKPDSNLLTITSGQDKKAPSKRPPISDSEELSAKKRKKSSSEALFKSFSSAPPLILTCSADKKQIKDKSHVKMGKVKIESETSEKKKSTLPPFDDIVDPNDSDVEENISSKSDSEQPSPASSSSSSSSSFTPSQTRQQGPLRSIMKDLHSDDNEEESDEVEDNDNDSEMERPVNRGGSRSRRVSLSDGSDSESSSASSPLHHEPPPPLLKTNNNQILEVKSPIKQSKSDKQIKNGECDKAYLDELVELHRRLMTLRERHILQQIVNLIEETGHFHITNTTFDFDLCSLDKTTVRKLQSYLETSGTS
Ecoli rRNA inh OD600 – second read-out of Ecoli rRNA inh, no call of its own (marks repeat the call); OD600 change, %; measured here: OD600 growth;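 optical density of the mix in the first replicate; 0 = DMSO median and -100 = no signal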
Ecoli rRNA inh RFP – second read-out of Ecoli rRNA inh, no call of its own (marks repeat the call); RFP signal change, %; measured here: RFP humanized mutant strains;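 first replicate; 0 = DMSO median and -100 = no signal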
Numbers without * were called inactive; i = inactive; . = no result given.

cpd	SMILES	Ecoli rRNA inh	FGF22 binding	Ecoli rRNA inh RFP	Ecoli rRNA inh OD600	AF4-AF9 inh
1	COc1ccc(NC(=O)Nc2ccc3c(c2)C(=O)N([C@@H](C)CO)C[C@H](C)[C@@H](CN(C)CC2CC2)OCCCC[C@H](C)O3)cc1	1	i	0.0	8	22
2	O=C(C[C@@H]1C=C[C@H](NS(=O)(=O)c2ccc(F)cc2)[C@H](CO)O1)N1CCN(c2ccccc2)CC1	-4	i	-1.4	-2	-3.4
3	C[C@@H]1CN([C@H](C)CO)C(=O)c2cc(NC(=O)C3CCCCC3)ccc2O[C@@H](C)CCCCO[C@H]1CN(C)Cc1ccc(Cl)c(Cl)c1	4	i	3.4	6	2.7
4	Cc1cccc(C)c1NC(=O)C1c2ccccc2OCC(=O)N1Cc1ccco1 (configuration not stated)	2	i	-0.8	1	2.0
5	Nc1ncnc(N2CCOCC2)n1	11	i	-0.7	32	-3.2
6	COc1ccc(NC(=O)C(c2ccc(OC)cc2)n2c(=O)c(-c3ccco3)nc3ccccc32)cc1 (configuration not stated)	-5	i	3.9	1	6.2
7	C[C@@H]1CN([C@@H](C)CO)C(=O)c2cc(/C=C/c3ccccc3)cnc2O[C@@H]1CN(C)Cc1cccnc1	1	i	1.9	-4	3.3
8	CCCC(=O)N1CC2(CCN(Cc3nccs3)CC2)c2c([nH]c3cc(OC)ccc23)[C@@H]1CO	-4	i	-1.3	-5	5.9
9	COCC(=O)N1CC2(C1)[C@H](c1ccc(-c3ccccc3)cc1)[C@H](CO)N2C(C)=O	-3	i	-1.6	-10	-3.4
10	C[C@H]1CN([C@@H](C)CO)C(=O)c2cccc(NC(=O)Nc3ccc(F)cc3)c2O[C@@H]1CN(C)Cc1ccc(C(F)(F)F)cc1	-2	i	-7.0	5	1.8
11	C[C@H]1CN([C@@H](C)CO)C(=O)c2cccc(NC(=O)c3nc4ccccc4s3)c2O[C@H]1CN(C)C(=O)Nc1cccc2ccccc12	-4	i	3.6	-6	-0.7
12	CCC(=O)Nc1ccc2c(c1)C(=O)N(C)[C@@H]1CC[C@H](CC(=O)O)O[C@H]1CO2	3	i	-1.8	7	-0.1

The last four records of the part above open the next one.
cpd	SMILES	Ecoli rRNA inh	FGF22 binding	Ecoli rRNA inh RFP	Ecoli rRNA inh OD600	AF4-AF9 inh
9	COCC(=O)N1CC2(C1)[C@H](c1ccc(-c3ccccc3)cc1)[C@H](CO)N2C(C)=O	-3	i	-1.6	-10	-3.4
10	C[C@H]1CN([C@@H](C)CO)C(=O)c2cccc(NC(=O)Nc3ccc(F)cc3)c2O[C@@H]1CN(C)Cc1ccc(C(F)(F)F)cc1	-2	i	-7.0	5	1.8
11	C[C@H]1CN([C@@H](C)CO)C(=O)c2cccc(NC(=O)c3nc4ccccc4s3)c2O[C@H]1CN(C)C(=O)Nc1cccc2ccccc12	-4	i	3.6	-6	-0.7
12	CCC(=O)Nc1ccc2c(c1)C(=O)N(C)[C@@H]1CC[C@H](CC(=O)O)O[C@H]1CO2	3	i	-1.8	7	-0.1
13	CO[C@H]1CN(C)C(=O)c2ccc(NC(=O)c3ccc(F)cc3)cc2OC[C@H](C)N(C)C[C@@H]1C	-1	i	-0.4	4	-2.4
14	COc1ccc(S(=O)(=O)Nc2ccc3c(c2)C(=O)N([C@@H](C)CO)C[C@H](C)[C@@H](CN(C)C)O3)cc1	7	i	-0.2	13	-1.9
15	COc1ccccc1NC(=O)N[C@H]1CC[C@@H](CCNS(=O)(=O)c2ccccc2)O[C@H]1CO	-3	i	-2.4	-2	0.3
16	CCOC(=O)C1C(=O)C=C(c2ccccc2)CC1c1ccccc1 (configuration not stated)	-13	i	-5.3	-34	-3.3
17	CO[C@H](CN(C)C(=O)C1CC1)[C@H](C)CN(C(=O)Nc1ccc(C(F)(F)F)cc1)[C@@H](C)CO	-63	i	-16	-80	-0.4
18	CCCN(CC(=O)Nc1ccc(F)c(F)c1F)C(=O)c1cc(S(=O)(=O)N(C)C)ccc1N1CCCC1	-2	i	-2.3	-11	2.6
19	COC(=O)[C@]12C[C@H](CC(=O)N3CCCCC3)C(=O)N(CCC3=CCCCC3)C1=C[C@H](COCc1ccccc1)O[C@@H]2C	4	i	2.3	-8	-0.8
20	Cc1ccc(S(=O)(=O)N2C[C@H]3C(=O)C[C@@H]4C(=O)N(c5ccccc5)C(=O)[C@@H]4[C@@H]3C[C@@H]2c2ccccc2)cc1	6	i	1.7	8	8.1
21	CCCC#Cc1ccc2c(c1)O[C@@H](CN(C)C(=O)CC1CC1)[C@@H](C)CN([C@@H](C)CO)S2(=O)=O	-5	i	11	-22	2.9
22	O=C(CN1CCN(C(=O)C2CCN(C(=O)/C=C/c3ccccc3)CC2)CC1)Nc1ccccc1Cl	-8	i	-2.0	-1	-20
23	CCC(=O)N(C)C[C@@H]1Oc2cc(C3=CCCC3)ccc2S(=O)(=O)N([C@@H](C)CO)C[C@@H]1C	0	i	-2.3	2	-19
24	CC1(c2nnnn2Cc2ccccc2)CCC(=O)N1CCCN1CCOCC1 (configuration not stated)	25	i	1.6	19	-1.6

More compounds follow.
cpd	SMILES	Ecoli rRNA inh	FGF22 binding	Ecoli rRNA inh RFP	Ecoli rRNA inh OD600	AF4-AF9 inh
25	CCCNC(=O)N[C@H]1CC[C@H](CCNS(=O)(=O)c2cccc(F)c2)O[C@@H]1CO	2	i	0.6	14	0.6
26	C[C@@H]1CN([C@@H](C)CO)C(=O)c2cc(NS(=O)(=O)c3ccc(Cl)cc3)ccc2O[C@H]1CN(C)S(=O)(=O)c1ccc(F)cc1	-5	i	0.6	-15	-2.5
27	NC(=O)c1ncn([C@@H]2O[C@H](CNCc3cccc(OC4CCCC4)c3)[C@@H](O)[C@H]2O)n1	2	i	18	23	1.1
28	COc1ccc(S(=O)(=O)Nc2ccc3c(c2)C(=O)N([C@@H](C)CO)C[C@@H](C)[C@@H](CN(C)CC2CC2)OCCCC[C@@H](C)O3)cc1	1	i	1.2	0	1.7
29	C[C@H](O)C#Cc1ccc2c(c1)O[C@@H](CN(C)C(=O)C1CCCCC1)[C@@H](C)CN([C@@H](C)CO)S2(=O)=O	-3	i	-1.2	-11	-1.9
30	COc1cccc(CNC(=O)C[C@@H]2C=C[C@@H](NS(=O)(=O)c3ccccc3OC)[C@@H](CO)O2)c1	-2	i	-2.4	-4	-0.6
31	CCCN(C)C[C@@H]1OCCCC[C@@H](C)Oc2ccc(NS(=O)(=O)c3cn(C)cn3)cc2C(=O)N([C@H](C)CO)C[C@@H]1C	5	i	-2.8	7	-15
32	Cc1ccc(S(=O)(=O)Nc2ccc3c(c2)C(=O)N([C@H](C)CO)C[C@H](C)[C@H](CN(C)S(=O)(=O)c2ccc(C)cc2)OCCCC[C@H](C)O3)cc1	1	i	-1.3	3	-7.0
33	COCCOC(=O)N1CCCCC1c1cc(C(=O)Nc2cccc3c2CCCC3)no1 (configuration not stated)	-5	i	2.5	-24	1.3
34	O=C(NC1CC1)c1cccc(NC(=O)C2CCN(S(=O)(=O)c3cccc(C(F)(F)F)c3)CC2)c1	8	i	7.5	-16	-1.5
35	CCCN(C)C[C@@H]1Oc2cc(C#C[C@@H](C)O)ccc2S(=O)(=O)N([C@@H](C)CO)C[C@@H]1C	4	i	-0.9	6	-0.9
36	C[C@@H]1CN([C@@H](C)CO)C(=O)Cc2cc(NC(=O)Nc3ccccc3)ccc2O[C@@H]1CN(C)S(C)(=O)=O	3	i	1.1	1	1.5

The list goes on.
cpd	SMILES	Ecoli rRNA inh	FGF22 binding	Ecoli rRNA inh RFP	Ecoli rRNA inh OD600	AF4-AF9 inh
37	COC(=O)C1=C(C(=O)OC)C2C=C(C(C)C)C1C(=O)C2(C)O (configuration not stated)	14	.	7.5	15	-4.8
38	CCCCCCNC(=O)O[C@@]12CN(S(=O)(=O)c3ccc(C)cc3)C[C@]1(O)Cn1c(=O)n(CCCCCC)c(=O)n1C2	-7	i	-5.6	-14	0.1
39	O=C(C[C@@H]1C=C[C@@H](NC(=O)C2CCC2)[C@@H](CO)O1)NCc1ccccc1Cl	6	i	2.0	2	-4.4
40	CC(C)C#Cc1ccc2c(c1)O[C@H](CN(C)S(=O)(=O)c1cn(C)cn1)[C@@H](C)CN([C@@H](C)CO)S2(=O)=O	-7	i	-0.7	-9	-0.2
41	COc1ccc(NC(=O)N2CCCCN3[C@H](C2)[C@@H](c2ccc(-c4ccccc4F)cc2)[C@@H]3CO)cc1	-47	i	-1.8	-64	-9.4
42	O=C(CCN1CCCCC1)N[C@H]1CC[C@H](CCNS(=O)(=O)c2ccc(F)cc2)O[C@H]1CO	1	i	-0.1	5	1.6
43	CC1(C(=O)Nc2cccc3c2CCCC3)CCN1C(=O)CCc1ccc(Cl)cc1Cl (configuration not stated)	-3	i	0.1	1	-0.9
44	COc1cc2ccccc2cc1C(=O)N1CCc2ccccc21	-5	i	-3.4	-22	-25
45	COc1cccc(-c2cc(NC=O)c3ncc(-c4cccc(C(=O)N(C)C)c4)n3c2)c1	-2	i	0.4	-19	0.2
46	C[C@@H]1CCCCO[C@@H](CN(C)C(=O)Nc2ccc(F)cc2)[C@@H](C)CN([C@@H](C)CO)C(=O)c2cc(NC(=O)Nc3ccc(F)cc3)ccc2O1	3	i	-1.1	3	8.5
47	CO[C@H]1CN(C)C(=O)c2cc(NC(=O)C3CCOCC3)ccc2OC[C@H](C)N(CC2CC2)C[C@H]1C	5	i	-3.6	10	-3.4
48	CCc1nc2c(OCc3ccccc3)cccn2c1N(C)C(=O)COc1ccccc1	-5	i	-3.7	-14	-1.3

Later entries.
cpd	SMILES	Ecoli rRNA inh	FGF22 binding	Ecoli rRNA inh RFP	Ecoli rRNA inh OD600	AF4-AF9 inh
49	C(=NOCc1ccccc1)c1ccncc1	11	i	1.6	12	-11
50	C[C@@H](C(=O)N(C)C[C@@H]1OCc2ccccc2-c2ccccc2C(=O)N([C@@H](C)CO)C[C@@H]1C)c1ccccc1	-1	i	-1.5	-7	-0.6
51	C[C@H]1CN([C@@H](C)CO)C(=O)c2cccc(NS(=O)(=O)c3ccc(Cl)cc3)c2O[C@@H]1CN(C)S(=O)(=O)c1ccccc1	-4	i	0.8	-6	-0.2
52	C[C@@H]1CN([C@H](C)CO)C(=O)Cc2cc(NC(=O)C3CCCCC3)ccc2O[C@@H]1CN(C)C(=O)NC1CCCCC1	-2	i	-1.0	-7	-0.5
53	CN(C)CC(=O)Nc1ccc2c(c1)[C@@H]1C[C@@H](CC(=O)NCc3cc(F)ccc3F)O[C@@H](CO)[C@@H]1O2	-3	i	-1.8	-5	-1.3
54	Cc1ccc(S(=O)(=O)N2CC[C@@H]3[C@H]2c2cc(-c4cccc(C(=O)N(C)C)c4)ccc2N[C@@H]3CO)cc1	-4	i	2.9	-9	0.3
55	C[C@H]1CNC(=O)c2c(C(=O)Nc3cccc(Cl)c3)ncn21	-13	i	-0.1	-13	1.4
56	C/C(=N/NC(=O)COc1ccc(C(C)(C)C)cc1)c1ccc(N2CCOCC2)cc1	-4	i	3.8	-9	1.2
57	CO[C@H]1CN(C)C(=O)c2cc(NC(=O)Nc3ccccc3)ccc2OC[C@H](C)N(C(=O)CN(C)C)C[C@@H]1C	-1	i	-1.2	5	2.2
58	CO[C@@H]1CN(C)C(=O)c2cc(NC(=O)C3CCC3)ccc2OC[C@H](C)N(C)C[C@H]1C	1	i	-1.6	2	-3.6
59	C/C=C/c1ccc2c(c1)O[C@@H](CN(C)S(=O)(=O)c1ccc(F)cc1)[C@@H](C)CN([C@H](C)CO)S2(=O)=O	-4	i	4.8	-5	5.0
60	Cc1ccc(S(=O)(=O)N(C)C[C@@H]2Oc3c(NS(=O)(=O)c4ccc(Cl)cc4)cccc3C(=O)N([C@@H](C)CO)C[C@@H]2C)cc1	-2	i	3.9	-3	0.6

Further entries:
cpd	SMILES	Ecoli rRNA inh	FGF22 binding	Ecoli rRNA inh RFP	Ecoli rRNA inh OD600	AF4-AF9 inh
61	CO[C@H]1CN(C)C(=O)c2ccc(NC(=O)Nc3cc(F)ccc3F)cc2OC[C@@H](C)NC[C@H]1C	2	i	2.8	0	0.8
62	COc1ccc(NC(=O)Nc2cccc3c2O[C@@H](CN(C)S(=O)(=O)c2ccc(C)cc2)[C@H](C)CN([C@H](C)CO)C3=O)cc1	-3	i	4.1	-2	3.8
63	Cc1ccccc1S(=O)(=O)N1[C@H](C#N)[C@@H](c2ccc(-c3ccc(F)cc3)cc2)[C@@H]1CO	0	i	24	-36	-1.9
64	O=[N+]([O-])c1ccc(O)c(C2CCCCC2)c1	-56	i	-18	-81	4.5
65	O=C(CSc1nnc(COc2ccc(Cl)cc2)o1)Nc1nccs1	-64	i	-20	-64	-1.2
66	COc1ccc2c3c([nH]c2c1)[C@H](CO)N(C(=O)C1CC1)CC31CCN(Cc2cccc(F)c2)CC1	-1	i	1.3	-6	6.3
67	Nc1ncnc2c1ncn2[C@@H]1O[C@H](C(=O)N[C@H](CO)Cc2ccc(O)cc2)[C@@H](O)[C@H]1O	8	i	2.5	6	0.7
68	C/C=C/c1ccc2c(c1)O[C@H](CN(C)C(=O)C1CCOCC1)[C@H](C)CN([C@H](C)CO)S2(=O)=O	-1	i	-4.0	4	-2.3
69	N#C[C@H]1N[C@H](CO)[C@@H]1c1ccc(-c2cccc(F)c2)cc1	7	i	1.2	6	0.2
70	COc1ccccc1-c1nc2ccccc2n(CC(C)C)c1=O	-21	i	1.6	-23	0.3

Source: PubChem BioAssay (Broad Institute)

This is a subset (hit frequency here may not be typical).
